Assay outcomes deposited in PubChem BioAssay by National Center for Advancing Translational Sciences (NCATS).
Rango release inh = inhibition of RanGTP-driven Rango-importin beta dissociation; 340,000 tested, 0.071% active; Biochemical FRET Rango-importin beta, RanGTP-induced dissociation; AID 540253; Potency, µM (top dose mostly 46.1 µM), for inactives: top-dose activity change, negative = inhibition; active means falling FRET ratio curve, often poorly fitted, with flat reads before Ran was added; inconclusive means other falling curves, or compound fluorescence or quenching; inactive means flat or rising ratio curve;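 also: potency is read from the fitted curve at half-maximal effect; % of control where 0% means no effect; nearly all actives have a fitted effect of over 45% in size; -100% = wells without RanGTP and RCC1; the record marks most hits as doubtful in a second field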
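Recombinant Rango FRET biosensor (EYFP–snurportin 1 IBB–cerulean CFP10) at 0.1 uM premixed with 0.25 uM importin beta in PBS, 1 mM DTT, 0.02% Tween-20, 0.1% BSA. Compound added 5 min; RanGTP-RCC1 (0.6 uM Ran, 2 mM GTP, 0.2 uM RCC1) then triggers release, read at 45 min.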
Rango-impB inh = prevents formation of the Rango-importin beta complex; 340,000 tested, 0.031% active; Potency, µM (highest dose often 92.2 µM), without a hit: at the highest dose inhibition of complex formation; Rango CFP/YFP FRET sensor + importin beta, 45 min; active = rising FRET ratio curve, often small or poorly fitted; inconclusive = mostly compound fluorescence or quenching in the first reads; inactive = flat curves in all reads;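 also: potency is read from the fitted curve at half-maximal effect; 0% = DMSO wells and 100% = buffer wells lacking importin beta; nearly all actives have a fitted effect of over 15% in size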
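Inhibition scored from the CFP 486 nm/YFP 530 nm FRET ratio 45 min after adding 0.125 microM importin beta to 50 nM Rango biosensor preincubated 5 min with compound (room temperature, PBS with DTT, Tween-20, BSA). No-importin wells as positive control.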
GLA inh pH 4.5 = blocks human alpha-galactosidase A at pH 4.5 | purified enzyme, 4-MU-alpha-Gal fluorescence, pH 4.5 | activity change, negative = inhibition, % at 105 µM | 230,000 tested, under 10 active | AID 1467; inconclusive = small, poorly fitted or top-dose-only inhibition, or a rising curve; inactive = flat fitted curve, though single readings scatter; no compound was filed as active;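 also: 0% = full activity with enzyme and -100% = basal without enzyme; dose as in the result columns while the protocol names 77 µM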
Target sequence (P06280 whole entry, looked up): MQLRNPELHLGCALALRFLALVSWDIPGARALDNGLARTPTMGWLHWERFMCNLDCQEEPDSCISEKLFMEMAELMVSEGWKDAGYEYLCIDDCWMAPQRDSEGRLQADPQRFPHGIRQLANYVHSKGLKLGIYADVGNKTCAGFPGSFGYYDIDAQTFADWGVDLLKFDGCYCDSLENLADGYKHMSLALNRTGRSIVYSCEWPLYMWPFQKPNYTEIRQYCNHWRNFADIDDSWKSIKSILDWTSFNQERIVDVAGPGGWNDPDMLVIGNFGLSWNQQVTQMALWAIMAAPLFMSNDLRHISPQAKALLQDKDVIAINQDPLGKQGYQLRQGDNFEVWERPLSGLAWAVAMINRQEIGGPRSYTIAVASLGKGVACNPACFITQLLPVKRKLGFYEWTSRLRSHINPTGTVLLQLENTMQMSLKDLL
miR-21 reporter = miR-21 reporter, rising signal; Potency, µM (titrated, usually from 38.3 µM), without a hit: at the highest dose reporter change, positive = more light; 340,000 tested, under 10 active; HeLa miR-21 FLuc reporter, luciferase, 48 h; active = well fitted rising curve with a large enough effect; inconclusive = small, poorly fitted or top-dose-only effect; inactive = no such curve, though single readings can be large or run the other way;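 also: % of control where 0% means no effect; miR-21 action dims this reporter so a rising signal means less miR-21 action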
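HeLa cells endogenously expressing miR-21, stably carrying CMV-driven firefly luciferase with a downstream miR-21 binding site, 2000 cells/well. Titrations up to approximately 40 uM, 48 hours; luciferase luminescence read.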
Active calls of the source: *; & = joins results of further samples. The list is partial. The share of hits here may be higher or lower than overall.

How did CCOc1ccccc1NC(=O)CN1C(=O)C(C)SC(C)C1=O (stereo not given) do in these assays?
Rango release inh: 0%; Rango-impB inh: -3.7%; GLA inh pH 4.5: 5; miR-21 reporter: 4%

How did CC(=NCCCn1ccnc1)c1c(O)n(Cc2ccccc2)c(=O)[nH]c1=O do in these assays?
Rango release inh: -7%; Rango-impB inh: -0.2%; GLA inh pH 4.5: -3; miR-21 reporter: -7%

How did CC(C)Oc1ccc(C2CC(=O)NC3=C2C(=O)CCC3)cc1 (stereo not given) do in these assays?
Rango release inh: 13%; Rango-impB inh: 2.4%; GLA inh pH 4.5: 3; miR-21 reporter: 0%

How did CCN(CC)C(=S)Nc1ccc2nc3n(c(=O)c2c1)CCCCC3 do in these assays?
Rango release inh: 21%; Rango-impB inh: -5.1%; GLA inh pH 4.5: -1; miR-21 reporter: -11%

What do the screens show for `CCN1C(=S)N[C@@H](c2cccs2)C(C(=O)OC)=C1C`?
Rango release inh: -11%; Rango-impB inh: -3.9%; miR-21 reporter: 0%&0%

What do the screens show for `Cc1ccc(CNC(=O)CCSCc2ccccc2C)cc1`?
Rango release inh: -12%; Rango-impB inh: 1.9%; miR-21 reporter: -4%

What do the screens show for `CCOC(=O)c1c(NC(C)=O)sc2c1C1CCN2CC1`?
Rango release inh: -8%; Rango-impB inh: 13%

How did CS(=O)(=O)c1[nH]nc(-c2ccccc2Cl)c1C#N do in these assays?
Rango release inh: -6%; Rango-impB inh: -0.8%; GLA inh pH 4.5: -6; miR-21 reporter: 4%

How did CCCCOc1nc2ccccc2nc1C(C#N)C(=O)NC1CCCCC1 (stereo not given) do in these assays?
Rango release inh: inconclusive; Rango-impB inh: inconclusive; GLA inh pH 4.5: -1; miR-21 reporter: -8%

What do the screens show for `Cc1ccc(S(=O)(=O)N2CCOCC2)cc1NC(=O)CSc1nnnn1C1CCCC1`?
Rango release inh: -2%; Rango-impB inh: -1.5%

Results for Cc1nc2ccccc2n1Cc1ccc(Br)cc1 ?
Rango release inh: 2%; Rango-impB inh: 0.1%

What do the screens show for `O=[N+]([O-])c1ccc(S(=O)(=O)NCCc2cn3ccccc3n2)cc1`?
Rango release inh: 24%; Rango-impB inh: 3.7%; GLA inh pH 4.5: 0; miR-21 reporter: -12%

Results for CC(=O)Nc1ccc(C(=O)NNC(=O)c2ccc(Cl)cc2Cl)cc1 ?
Rango release inh: -3%; Rango-impB inh: -1.8%; miR-21 reporter: 6%

How did O=C(COC(=O)c1n[nH]c2ccccc12)Nc1ccc([N+](=O)[O-])cc1 do in these assays?
Rango release inh: -4%; Rango-impB inh: -0.1%; GLA inh pH 4.5: 9; miR-21 reporter: -31%

Results for COc1ccc(C(=O)NCC(=O)OCC(=O)NCc2ccco2)cc1 ?
Rango release inh: -3%; Rango-impB inh: 2.7%

Some of these compounds in order of formula weight, rising:
How did CCOc1ccccc1NC(=O)CN1C(=O)C(C)SC(C)C1=O (stereo not given) do in these assays?
Rango release inh: 0%; Rango-impB inh: -3.7%; GLA inh pH 4.5: 5; miR-21 reporter: 4%

What do the screens show for `O=[N+]([O-])c1ccc(S(=O)(=O)NCCc2cn3ccccc3n2)cc1`?
Rango release inh: 24%; Rango-impB inh: 3.7%; GLA inh pH 4.5: 0; miR-21 reporter: -12%

What do the screens show for `Cc1ccc(S(=O)(=O)N2CCOCC2)cc1NC(=O)CSc1nnnn1C1CCCC1`?
Rango release inh: -2%; Rango-impB inh: -1.5%

(more compounds)
What do the screens show for `COC(=O)C(Cc1ccc(O)cc1)NC(=O)c1ccccc1` (stereo not given)?
Rango release inh: -25%; Rango-impB inh: 4.4%; GLA inh pH 4.5: 3; miR-21 reporter: 0%

What do the screens show for `O=C(Oc1ccccc1)N1CCN(c2ccccc2F)CC1`?
Rango release inh: 13%; Rango-impB inh: 4.7%; miR-21 reporter: -21%

How did Cc1n[nH]c(C)c1CCC(=O)N/N=C/c1cccc([N+](=O)[O-])c1 do in these assays?
Rango release inh: -5%; Rango-impB inh: 2.6%; GLA inh pH 4.5: 10; miR-21 reporter: -2%

Results for Oc1ccc(C2C(c3ccccc3)=NN=C(c3ccccc3F)N2O)c(O)c1 (stereo not given) ?
Rango release inh: 12%; Rango-impB inh: 3.2%; GLA inh pH 4.5: 4; miR-21 reporter: -27%

How did OC(COc1cccc2ccccc12)CN1CCCC1 (stereo not given) do in these assays?
Rango release inh: 14%; Rango-impB inh: -2.3%; GLA inh pH 4.5: 4; miR-21 reporter: -10%

Results for CCC1(C)Cc2ccccc2-c2nc(-c3ccccc3)oc(=O)c21 (stereo not given) ?
Rango release inh: 3%; Rango-impB inh: -1.5%; GLA inh pH 4.5: 1; miR-21 reporter: -6%

What do the screens show for `O=C(NCCCN1CCCC1=O)Nc1ccc(F)c(Cl)c1`?
Rango release inh: 16%; Rango-impB inh: -0.1%; GLA inh pH 4.5: 8; miR-21 reporter: -33%

How did Cc1ccc(C(=O)NC(C(=O)NC2CCCC2)c2ccccc2)cc1 (stereo not given) do in these assays?
Rango release inh: -10%; Rango-impB inh: -1.1%; miR-21 reporter: -3%

Results for COc1ccc(NC(=S)N2CCN(Cc3ccccc3)CC2)cc1 ?
Rango release inh: 0%; Rango-impB inh: -3.5%; GLA inh pH 4.5: 1; miR-21 reporter: -12%

What do the screens show for `CCOc1c(C)cnc2c1c(=O)n(Cc1c(F)cccc1Cl)c(=O)n2C`?
Rango release inh: 12%; Rango-impB inh: 1.1%; miR-21 reporter: 4%

How did O=C(CNC(=S)N(Cc1ccccc1)Cc1ccccc1F)NCc1ccc(Cl)cc1 do in these assays?
Rango release inh: -1%; Rango-impB inh: -1.1%; GLA inh pH 4.5: -5; miR-21 reporter: 20%

What do the screens show for `COc1ccc(/C=N/NC(=O)c2sccc2C)c2ccccc12`?
Rango release inh: -8%; Rango-impB inh: inconclusive

What do the screens show for `Cc1cc(C)nc(/N=C(\N)Nc2ccc(CC(=O)OC(C)C)cc2)n1`?
Rango release inh: 16%; Rango-impB inh: inconclusive; miR-21 reporter: 24%

Results for Cc1ccc(S(=O)(=O)N2CCOCC2)cc1NC(=O)c1cccc(S(=O)(=O)N2CCCC2)c1 ?
Rango release inh: 12%; Rango-impB inh: 0.4%; GLA inh pH 4.5: -10; miR-21 reporter: 7%

How did CC(=O)SC1CC2=CC(=O)CCC2(C)C2CCC3(C)C(CCC34CCC(=O)O4)C12 (stereo not given) do in these assays?
Rango release inh: -8%; Rango-impB inh: -3.1%; GLA inh pH 4.5: 1; miR-21 reporter: 5%

How did C=CCN(CC=C)S(=O)(=O)c1ccc(NC(=O)COc2ccccc2OC)cc1 do in these assays?
Rango release inh: -7%; Rango-impB inh: 0.0%; GLA inh pH 4.5: -6; miR-21 reporter: -9%

Results for CCOC(=O)C1(S(=O)(=O)c2ccccc2)CCN(Cc2ccccc2)CC1 ?
Rango release inh: -21%; Rango-impB inh: -3.0%; GLA inh pH 4.5: 3; miR-21 reporter: -3%

What do the screens show for `CCOC(=O)C1(Cc2ccccc2C)CCCN(S(=O)(=O)c2cccnc2)C1` (stereo not given)?
Rango release inh: -12%; Rango-impB inh: -2.5%; GLA inh pH 4.5: -22; miR-21 reporter: 4%

Results for S=C(NCc1ccccc1)N1CCN(c2cccc(Cl)c2)CC1 ?
Rango release inh: 0%; Rango-impB inh: 2.4%; GLA inh pH 4.5: -9; miR-21 reporter: -5%

How did CCOCCCNC(=O)N[C@@H](Cc1ccccc1)C(=O)OC do in these assays?
Rango release inh: 4%; Rango-impB inh: 0.4%; GLA inh pH 4.5: 0; miR-21 reporter: 0%

Results for CCCOc1ccc(C(C)=O)cc1CN1CCOCC1 ?
Rango release inh: 7%; Rango-impB inh: -2.8%; GLA inh pH 4.5: -10; miR-21 reporter: -4%

Results for Cc1ccc(SCC(=O)c2cc(C)c(OC(=S)N(C)C)c(C)c2)cc1 ?
Rango release inh: -4%; Rango-impB inh: -1.1%; GLA inh pH 4.5: -8; miR-21 reporter: -53%

Results for Cc1cc(=O)n2[nH]c(Nc3cccc(Cl)c3)nc2n1 ?
Rango release inh: 0%; Rango-impB inh: 0.2%

How did COc1ccc(N2CCN(C(=O)NC34CC5CC(CC(C5)C3)C4)CC2)cc1 do in these assays?
Rango release inh: 4%; Rango-impB inh: -0.4%; GLA inh pH 4.5: 0; miR-21 reporter: -4%

Results for CC(C)(C)OC(=O)C[C@@H]1C/C=C\C[C@@H](CC(=O)NCCO)C(=O)N[C@H](Cc2ccccc2)COC1=O ?
Rango release inh: -9%; Rango-impB inh: -0.5%

How did Cn1nc(-c2ccc(Cl)cc2)c2cc(C(=O)NC3CC3)sc21 do in these assays?
Rango release inh: 7%; Rango-impB inh: 0.0%; GLA inh pH 4.5: 6; miR-21 reporter: -10%

How did O=C(O)C1CCN(S(=O)(=O)c2cccc3nonc23)CC1 do in these assays?
Rango release inh: 0%; Rango-impB inh: -1.0%; miR-21 reporter: -1%

What do the screens show for `COc1c2occc2c(OC(C)=O)c2c(=O)cc(C)oc12`?
Rango release inh: 16%; Rango-impB inh: 9.0%; miR-21 reporter: 0%

How did Cc1ccc(S(=O)(=O)Nc2nc3ccccc3nc2N2CCc3ccccc3C2)cc1 do in these assays?
Rango release inh: inconclusive; Rango-impB inh: inconclusive; GLA inh pH 4.5: -1; miR-21 reporter: -19%

Results for COc1ccc(COCC(O)CN2CCN(S(=O)(=O)c3c(F)cccc3F)CC2)cc1OC (stereo not given) ?
Rango release inh: -5%; Rango-impB inh: 0.3%

Random excerpt: 2 compounds from above
How did CCOCCCNC(=O)N[C@@H](Cc1ccccc1)C(=O)OC do in these assays?
Rango release inh: 4%; Rango-impB inh: 0.4%; GLA inh pH 4.5: 0; miR-21 reporter: 0%

How did O=C(O)C1CCN(S(=O)(=O)c2cccc3nonc23)CC1 do in these assays?
Rango release inh: 0%; Rango-impB inh: -1.0%; miR-21 reporter: -1%

(listing goes on)
Results for CCOc1ccccc1NC(=O)COC(=O)C12CC3CC(CC(O)(C3)C1)C2 ?
Rango release inh: 4%; Rango-impB inh: -1.5%

What do the screens show for `Cc1ccc(NC(=O)CN2C(=O)S/C(=C\c3cc(Cl)c(OCC(=O)O)c(Cl)c3)C2=O)cc1`?
Rango release inh: 5%; Rango-impB inh: inconclusive; miR-21 reporter: -5%

Results for Cc1ccc(S(=O)(=O)NC(=O)COc2ccc(Cl)cc2Cl)cc1 ?
Rango release inh: -1%; Rango-impB inh: 0.7%; miR-21 reporter: -5%

What do the screens show for `CCN1CCN(C(=O)c2ccc(N3CC4CC(C3)c3cccc(=O)n3C4)c(NC(=O)c3cc(OC)cc(OC)c3)c2)CC1` (stereo not given)?
Rango release inh: -26%; Rango-impB inh: -1.7%; miR-21 reporter: -5%

What do the screens show for `Cc1cc(NC(=O)CN2C(=O)NC(C)(c3ccc(Cl)cc3Cl)C2=O)no1` (stereo not given)?
Rango release inh: 5%; Rango-impB inh: 0.2%

How did Cc1noc(C)c1COc1ccc(C(=O)NCCOc2ccccc2)cc1 do in these assays?
Rango release inh: -3%; Rango-impB inh: inconclusive

How did Cc1ccc(S(=O)(=O)N(CC(=O)NCCC2=CCCCC2)Cc2ccccc2)cc1 do in these assays?
Rango release inh: 10%; Rango-impB inh: 2.1%; GLA inh pH 4.5: 7; miR-21 reporter: 11%

What do the screens show for `O=C1NC(CCc2ccccc2)C(=O)N1CCOc1cccc(Br)c1` (stereo not given)?
Rango release inh: 0%; Rango-impB inh: -0.7%; GLA inh pH 4.5: -9; miR-21 reporter: -4%

What do the screens show for `O=C(Nc1ccccc1N1CCN(C(=O)c2ccc(Cl)cc2)CC1)c1ccc2c(c1)OCO2`?
Rango release inh: 11%; Rango-impB inh: 1.4%; GLA inh pH 4.5: -6; miR-21 reporter: 1%

What do the screens show for `CCOC(=O)c1c(C)[nH]c(C)c1C(=O)COC(=O)CCc1ccccc1`?
Rango release inh: 15%; Rango-impB inh: 3.4%

How did O=C1O/C(=C\c2ccccc2)c2ccccc21 do in these assays?
Rango release inh: 27%; Rango-impB inh: 5.5%; GLA inh pH 4.5: -11; miR-21 reporter: -7%
